Screens as filed in PubChem BioAssay.
Ab BasE inh – BasE siderophore biosynthesis inhibition | AID 485350 | purified BasE, fluorescence polarization binding displacement | inhibition, % (concentration not given with the values) | 84,000 tested, 0.1% active;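 active means both replicates above 25% with normal brightness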;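 further: 0% = negative plate control signal and 100% = positive plate control signal; stock transfer was 100 nL into about 30 µL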
LANA-nucl inh – LANA-nucleosome interaction inhibition; FITC-LANA1-23 / chicken nucleosome fluorescence polarization; hits give low values; z-score (no concentration beside the values); 51,000 tested, 0.3% active; AID 720717;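 active means both repeat wells score below -2 in polarization z-score versus plate sample wells, excluding overly bright wells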;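 further: 100 nL library stock added to about 30 µL; numbers are from one replicate; some results filed as inactive read as strong as hits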
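Test system: purified chicken nucleosomes with FITC-labelled LANA N-terminal peptide (1-23); Input: 240 nM purified chicken nucleosomes (480 nM peptide binding sites), final; Medium: TEN-BT buffer, pH 7.5; Timing: 10–45 min, room temperature; Technique: fluorescence polarization, 480 nm excitation, 535 nm parallel and perpendicular emission; Replication: duplicates.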
The depositor's hits bear a star; . = no result given; & = joins results of further samples.

molecule,Ab BasE inh,LANA-nucl inh
COc1ccccc1CN1COc2cc3c(cc2C1)OCO3,0.7,-0.172
Cc1c(C(=O)NC2CCCCC2)sc2nc(-c3ccc(F)cc3)cn12,-7.6,1.39
CC1Cc2ccccc2N1C(=O)COc1ccc(-n2cnnn2)cc1 (configuration not stated),1.5,.
CCOCCC(=O)Nc1ccc2c(c1)OCCO2,1.3,0.041
CC1=C(C(=O)Nc2cc(C)ccc2C)C(c2ccc(N(C)C)cc2)NC(=S)N1 (configuration not stated),1.6,.
O=C(O)CC1=C(c2ccc(F)cc2)CCC1=O,-3.1,2.27
Cc1cc(C)cc(NC(=O)N2CCSc3ccccc32)c1,0.9,-0.809
N#Cc1cccc(S(=O)(=O)N2CCCC2c2ccc3c(c2)OCCCO3)c1 (configuration not stated),1.6,.
CS(=O)(=O)c1ccc(NC(=O)c2ccc(Br)o2)cc1,-1.2,.
COc1ccccc1/C=C1\SC(N2CCN(c3ccccc3)CC2)=NC1=O,0.2,-0.188
CCOC(=O)c1cc(-c2ccccc2)n(CCC(=O)Nc2ccccc2N2CCN(C)CC2)c1C,0.6,-1.73
CN(C(=O)Nc1ccccc1)c1c2c(nn1C)CCCC2,-0.1,1.71
COc1cccc(-c2cc(C(=O)NCC(C)C)on2)c1,-1.9,-0.87
CC(C)CCNC(=O)c1cccc2c1-c1ccccc1C2=O,0.8,.
C=CCN(CC=C)CC(O)Cn1cnc2c1c(=O)n(C)c(=O)n2C (configuration not stated),0.3,.
CC(C)(C)NC[C@@H](O)COc1nsnc1N1CCOCC1,1.8,-0.074
Cc1nn2c(nc1=O)NNC2(C)c1ccccc1 (configuration not stated),1.8,.
CC(=O)N1C=Cc2ccccc2C1CC(=O)O (configuration not stated),-1.6,.
CSc1ncc(C(=O)N2CCN(c3ccccc3F)CC2)c(C)n1,-1.1,0.344
CC(=O)N1CCOc2ccc(S(=O)(=O)NCc3ccccc3)cc21,1.0,0.439
CC1CCCN(C(=O)Cc2cccc3ccccc23)C1 (configuration not stated),0.8,-0.694
N#C/C(=C\c1ccccc1)C(=O)OCC1CCCO1 (configuration not stated),1.7,.
COCC(C)n1c(COc2ccccc2F)nnc1SCC(=O)OC(C)(C)C (configuration not stated),-0.1,.
O=C1Sc2ccc(S(=O)(=O)Nc3ccc(Br)cc3)c3cccc1c23,0.5,.
CN1C(C(=O)Nc2cccnc2)=CC(c2ccco2)=NS1(=O)=O,1.4,-0.854
N#CC(Cc1cccs1)c1nc2ccccc2[nH]1 (configuration not stated),-1.4,0.028
O=C(CCc1nc2ccccc2[nH]c1=O)OCC(=O)c1ccc(F)cc1,0.8,.
O=C(Nc1ccc(N2CCCC2)cc1)c1cc2ccccc2o1,1.9,-0.103
Cc1ccc(N=Cc2ccncc2)cc1,-3.7,0.979
Cc1cc(C)n2nc(C(=O)NCc3ccc4c(c3)OCO4)nc2n1,-0.1,.

Sorted by value in LANA-nucl inh (descending): 4 of the compounds above.
smiles | LANA-nucl inh
N#CC(Cc1cccs1)c1nc2ccccc2[nH]1 (configuration not stated) | 0.028
O=C(Nc1ccc(N2CCCC2)cc1)c1cc2ccccc2o1 | -0.103
CC1CCCN(C(=O)Cc2cccc3ccccc23)C1 (configuration not stated) | -0.694
CN1C(C(=O)Nc2cccnc2)=CC(c2ccco2)=NS1(=O)=O | -0.854

The list continues.
molecule,Ab BasE inh,LANA-nucl inh
Cc1ccc(Cl)cc1NC(=O)N1CCN2CCCCC2C1 (configuration not stated),0.3,.
COc1ccc(C/C(C#N)=C/N2CCN(c3ccccc3F)CC2)cc1,2.5,.
CC1(C)Cc2cccc(C(=O)Nc3ccc(C(F)(F)F)cc3)c2O1,2.8,.
CCCCNC(=O)c1cn(CC)c2ccc(S(=O)(=O)N(C)C3CCCCC3)cc2c1=O,-2.7,0.703
CN(Cc1ccccc1)c1cc(N2CCC3(CC2)OCCO3)c2noc3c2c1C(=O)c1ccccc1-3,-15.5,-1.4
Cc1cc(C)n2c(SCC(N)=O)nnc2n1,4.1,.
Cc1c(/C=C(\C#N)C(=O)Nc2nccs2)cc(C#N)n1C,0.6,.
COc1cc2c3c(c1OC)C1(C=CC(=NNC(N)=O)C=C1)CC3N(C(C)=O)CC2 (configuration not stated),-0.9,0.0235
C/C(=N\NC(=O)Cc1cc(=O)[nH][nH]1)c1ccco1,2.4,-0.81
CNCC[C@@H](Oc1ccccc1)c1ccccc1,.,0.0325
N#CC1(NC(=O)CNc2ccc(I)cc2)CCCC1,-1.0,.
Cc1cc2c(c(=O)[nH]1)C(=O)O/C2=C\c1ccco1,-4.3,.
O=CNC1c2ccccc2Oc2ccccc21,-1.5,.
CCN(CC)C(=S)NCCc1ccccc1,-2.7,-0.367
O=C1CCCC2=C1C1(O)C(=O)c3ccccc3C1(O)O2 (configuration not stated),7.5,-0.861

Profiles as entered above. Order of screens: Ab BasE inh | LANA-nucl inh
CCN(CC)C(=S)NCCc1ccccc1 in the list: -2.7 | -0.367
O=CNC1c2ccccc2Oc2ccccc21 in the list: -1.5 | .

More results follow.
molecule,Ab BasE inh,LANA-nucl inh
O=C(c1cnc2ccccc2n1)N1CCN(S(=O)(=O)c2ccc3c(c2)OCCCO3)CC1,1.4,.
O=C(O)c1cccc(CSc2nnc(COc3ccccc3)o2)c1,-0.4,2.56
Cc1ccc(-n2c(=O)c3ccccc3n3c(SCC(=O)N(C(C)C)C(C)C)nnc23)c(C)c1,-1.8,.
N#Cc1c(-c2ccccc2)nc(SCCN2C(=O)c3ccccc3C2=O)[nH]c1=O,1.1,0.468
O=C(Cc1cccs1)Nc1cccc(-c2nn[nH]n2)c1,-1.5,0.327
Cc1oc2nc[nH]c(=O)c2c1C(=O)O,-0.1,.
CC1CCN(S(=O)(=O)c2ccc(C(=O)Nc3nc(-c4ccncc4)cs3)cc2)CC1,1.4,0.0125
CCn1cc2c(n1)C(=O)N(c1ccccc1)C1c3ccccc3C(=O)N21 (configuration not stated),1.2,0.429
CCC1CCCCN1C(=O)C1CCCCC1 (configuration not stated),1.3,0.265
CCOC(=O)c1c(C)oc2c1c1c(c3ccccc32)OCN(CCc2ccccc2)C1,1.3,.
CC1(C)CC(=O)C(C=NCCN2CCN(C3CC(=O)N(c4ccc(Br)cc4)C3=O)CC2)=C(O)C1 (configuration not stated),1.8,0.343
CCN(CC)S(=O)(=O)c1ccc(N=Nc2sc(N)nc2-c2ccccc2)cc1,0.6,.
N#C/C(C(N)=O)=C1/CCc2ccccc2N1,-1.0,.
CSc1ccccc1C(=O)N1CCN(c2ccccc2)CC1,1.1,.
N#Cc1ccccc1-c1ccccc1C(=O)O,1.4,.

4 entries drawn at random from the list so far:
molecule,Ab BasE inh,LANA-nucl inh
CCn1cc2c(n1)C(=O)N(c1ccccc1)C1c3ccccc3C(=O)N21 (configuration not stated),1.2,0.429
O=C(O)c1cccc(CSc2nnc(COc3ccccc3)o2)c1,-0.4,2.56
CSc1ccccc1C(=O)N1CCN(c2ccccc2)CC1,1.1,.
N#Cc1ccccc1-c1ccccc1C(=O)O,1.4,.

Following part.
molecule,Ab BasE inh,LANA-nucl inh
CC(=O)NC1C(OCC(C)C)OC(COC(C)=O)C(OC(C)=O)C1OC(C)=O (configuration not stated),4.0,.
CCn1c(C(=O)N2CCC(C(=O)N3CCc4ccccc4C3)CC2)cc2occc21,0.1,0.182
COC(=O)C1CCCN1S(=O)(=O)c1ccc(Cl)cc1 (configuration not stated),2.8,-0.596
Oc1cccc(O)c1,-2.0,0.642&-1.35
CCOC(=O)C1=C(C)NC2=C(C(=O)C(C(=O)OC)C(C)C2)C1c1ccc(OC)cc1 (configuration not stated),1.6,0.152
O=C(Cn1cncn1)N/N=C/c1cccs1,1.0,.
O=C(Nc1ccc2c(c1)OCO2)C1CCCC1,0.6,.
COc1ccc(CCNC(=O)c2ccc3c(c2)S(=O)(=O)N=C2CCCCCN23)cc1OC,-0.1,.
CCn1c(SC)nnc1C1CCN(C(=O)N2CCCC2)CC1,0.2,0.122
Cc1c(C#N)c(NC(=O)CSc2nnc(-c3ccccc3)n2-c2ccc(Cl)cc2)n(CC2CCCO2)c1C (configuration not stated),0.5,.
CC(C)(CO)NC(=S)NCc1ccco1,-0.3,-0.107
O=c1[nH]c2ccccc2nc1-c1c[nH]n(-c2ccccc2)c1=O,2.1,.
COC(CNC(=O)c1ccc2c(c1)ncn2-c1cccc(F)c1)OC,1.4,-0.592
Cc1cccc2cc(C#N)c(SCC(=O)NCC3CCCO3)nc12 (configuration not stated),-2.0,-0.852
CC1CCc2c(sc3nc(Cc4nc5ccccc5n4C)[nH]c(=O)c23)C1 (configuration not stated),-0.1,.
CCCCC/C=C\CC1OC1C/C=C\C/C=C\CCCC(=O)O (configuration not stated),-2.5,1.14
CCCCOc1ccc(C(=O)O/N=C(\C)c2ccco2)cc1,2.2,0.821
c1ccc(Oc2ccc(-c3ccnc4ncnn34)cc2)cc1,.,-0.083
CCn1nc(C)c(NC(=O)CCSc2nc(-c3ccco3)cc(C(F)(F)F)n2)c1C,-0.9,0.452
CC(C)C(=O)Nc1ccc(N2CCN(c3ccc(F)cc3)CC2)cc1,.,-0.303
CC(C)NC(=O)N1c2ccccc2Sc2ccccc21,0.7,0.112
CCOc1cc(N2CCOCC2)c(OCC)cc1NC(=O)C1=NN(c2ccccc2)C(=O)CC1,2.3,.
Cc1ccc(C(=O)CC(C(=O)O)n2cncn2)cc1 (configuration not stated),1.9,-1.77
Cc1ccc(-c2nnc(SCC(=O)NCC3COc4ccccc4O3)o2)cc1 (configuration not stated),-0.7,.
CCc1noc(CC)c1C(=O)O,-0.2,-0.122
O=C(O)/C=C/c1ccc(SC(F)F)cc1,0.8,.
CN(C)S(=O)(=O)c1ccc(=O)n(CC(=O)N2CCSC2c2ccccc2F)c1 (configuration not stated),1.8,.
N=c1c(C(N)=O)cc2c(=O)n3ccccc3nc2n1C1CCCC1,13.4,-0.606
CC1Sc2ccc(S(=O)(=O)C(C)CC(=O)N3CCN(c4ccccc4F)CC3)cc2NC1=O (configuration not stated),-3.3,0.133
CC(NC(N)=O)C12CC3CC(CC(C3)C1)C2 (configuration not stated),5.4,-0.209
C=CCN1C(=O)/C(=C2/C=CC=CN2C)SC1=S,-3.6,-0.213
C=CCn1c(SCC(=O)c2ccc3c(c2)NC(=O)CO3)nc2cc(Cl)ccc2c1=O,-5.6,.
CC(C)c1ccc(-c2nc(O)cc(=O)s2)cc1,.,-0.877
Clc1ccc2nc(N3CCCCC3)nc(-c3ccccc3)c2c1,1.0,.
O=C(COC(=O)c1nc(Cl)ccc1Cl)c1ccc2[nH]c(=O)[nH]c2c1,-3.2,.
Cc1ccc(OCC(=O)Nc2ccccc2OC(F)F)c(C)c1,-0.2,-0.237
Cc1cc(NC(=O)NCCNc2ncccc2C(F)(F)F)c(C(F)(F)F)o1,0.9,.
c1cc2c(cc1CNc1ccc3c(c1)CCC3)OCO2,2.3,0.623
CC1CCCC(C)N1Cc1cc2c3c(c(=O)oc2cc1O)CCC3 (configuration not stated),1.8,.
O=c1c2ccccc2ncn1CCOc1cccc(C(F)(F)F)c1,2.5,0.585
O=C(NC(=S)N1CCCC1)c1ccccc1,-0.6,-0.0345
CCN(CC)C(=O)c1ccc(COc2ccccc2Cl)cc1,0.1,1.1
CC(=O)N/C(=C\c1ccccc1)C(=O)OCc1nc(N)nc(Nc2ccccc2C)n1,1.0,.
CN(C(=O)COC(=O)c1cc(=O)c2ccccc2o1)c1ccccc1,3.7,.
CN1CCN(S(=O)(=O)N(C)C)CC1,.,-0.667
Cn1c(=O)c2[nH]c(SCC(=O)C(C)(C)C)nc2n(C)c1=O,1.3,.
CC(=O)NCCNc1nc2c(S(=O)(=O)c3ccc(C)cc3)nnn2c2ccccc12,-0.5,-0.288
CCN(C(=O)c1cn(CC(C)C)c(=O)c2cc(OC)c(OC)cc12)c1ccccc1C,1.5,-0.318
C=CCOc1nc(N(C)C)nc(N2CCOCC2)n1,-0.3,0.0685
C=CCn1c(CCN2CCCCC2)n[nH]c1=S,0.5,.
O=C1CC(C(=O)N2CCOCC2)C2(CCCCC2)O1 (configuration not stated),0.4,0.651
N#Cc1oc2ccccc2c1NC(=O)CSc1nnc2n(-c3ccccc3)c(=O)c3ccccc3n12,-0.5,.
Clc1ccc(C2(c3noc(-c4cccs4)n3)CC2)c(Cl)c1,1.1,-1.06
O=C(Nc1ccc(N2CCN(Cc3ccccc3Cl)CC2)cc1)c1ccc2c(c1)OCCO2,2.1,-2.35
CN(C)/C=C(\C#N)c1nc2ccccc2[nH]1,0.0,0.718
NC(=O)COC(=O)Cc1cccc2ccccc12,-3.8,.
N#CC1C(=O)NC(=S)C(C(N)=O)C12CCCCC2 (configuration not stated),3.7,.
CC(=O)/C=C(\O)c1ccc(Cl)cc1,-1.2,.
CC(C)(C)c1ccc(-c2noc(CCn3c(=O)oc4ccccc43)n2)cc1,-6.0,.

The list is partial, so the mix of outcomes need not match the whole.
